# Screening data from PubChem.
# RE007 growth inh = less growth of the S. pombe RE007 Vpr strain. S. pombe RE007 Vpr strain, BacTiter-Glo ATP luminescence, 24 h; control for the full effect not named in the record. Potency, µM (highest dose often 92.2 µM), without a hit: top-dose activity change, negative = less growth. hit rate 0.21% among 360,000; active = well fitted falling curve with a large enough effect; inconclusive = small, poorly fitted or top-dose-only effect; inactive = no such curve, though single readings can be large or run the other way;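 further: on the % scale 0 is the no-effect control and ±100 the full control effect; nearly all actives have a fitted effect of over 50% in size; the assay follows cell death caused by Vpr and the record does not say whether a fall means rescue or toxicity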
#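 Fission yeast RE007 carrying one integrated HIV-1 vpr copy, seeded at OD 0.01 in PMG+AL medium with 23 nL pinned compound. Grown 24 h at 30 degrees; viability read by BacTiter-Glo luminescence after 5 min.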
# MARV entry inh = blocks Marburg virus binding to or entry into cells | Marburg virus pseudotyped entry inhibition, cell reporter; control for the full effect not named in the record; about a third of the inactives were read at about 46 µM | Potency, µM (highest dose often 37.8 µM), without a hit: at the top dose activity change, negative = inhibition, hits mostly inhibitors | hit rate 1.8% among 300,000; active = well fitted inhibition curve with a large enough effect; inconclusive = small, poorly fitted or top-dose-only effect, or effect the other way; inactive = flat fitted curve, though single readings scatter; tested in HEK293 cells; about a fifth of its hits are not listed in these tables; further: on the % scale 0 is the no-effect control and ±100 the full control effect; luciferase read-out
# Lassa entry inh = blocks Lassa virus binding to or entry into cells. Lassa virus pseudotype entry inhibition, cell reporter; control for the full effect not named in the record. Potency, µM (highest dose often 37.9 µM), for inactives: at the highest dose activity change, negative = inhibition, usual class: inhibitors. hit rate 1.2% among 300,000. AID 540256; active means well fitted inhibition curve with a large enough effect; inconclusive means small, poorly fitted or top-dose-only effect, or effect the other way; inactive means flat fitted curve, though single readings scatter; tested in HEK293 cells; further: on the % scale 0 is the no-effect control and ±100 the full control effect; nearly all actives have a fitted effect of over 50% in size; luciferase read-out
# StopGo reporter = lowers the luciferase signal of an FMDV 2A StopGo reporter; human cells with a luciferase reporter of 2A StopGo recoding; control for the full effect not named in the record; Potency, µM (doses to about 57.9 µM), without a hit: top-dose signal change, negative = less light; hit rate 1.2% among 410,000; AID 1159524; active = well fitted falling curve with a large enough effect; inconclusive = small, poorly fitted or top-dose-only effect; inactive = no such curve, though single readings can be large or run the other way; tested in HEK293T cells; further: on the % scale 0 is the no-effect control and ±100 the full control effect; nearly all actives have a fitted effect of over 45% in size; luciferase light after 4 h
# SARS PLP yeast = inhibitors of SARS-CoV papain-like protease in yeast. S. cerevisiae expressing SARS-CoV PLpro, growth rescue; control for the full effect not named in the record. Potency, µM (top dose mostly 32.9 µM), for inactives: at the top dose activity, positive = growth rescue. hit rate 0.19% among 330,000; further: 0% is about no effect; nearly all actives have a fitted effect of over 55% in size; growth read by luminescence after 48 h
# Cruzain noTriton = cruzain (T. cruzi) inhibition without detergent; purified cruzain, Z-FR-AMC fluorescence, no detergent; Potency, µM, inactives show max response, negative = inhibition, usual class: inhibitors; hit rate 2.3% among 200,000; AID 1476; active means well fitted curve in the direction sought with a large enough effect; inconclusive means small, poorly fitted or top-dose-only effect, or another doubt; inactive means no such curve, though single readings can be large; an effect the other way counts as inactive or inconclusive;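 further: plate controls were enzyme without inhibitor for no effect and buffer without enzyme for full effect; nearly all actives have a fitted effect of over 40% in size; top concentration of the series not given in the record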
# Target sequence (P25779 123-467 limits assumed): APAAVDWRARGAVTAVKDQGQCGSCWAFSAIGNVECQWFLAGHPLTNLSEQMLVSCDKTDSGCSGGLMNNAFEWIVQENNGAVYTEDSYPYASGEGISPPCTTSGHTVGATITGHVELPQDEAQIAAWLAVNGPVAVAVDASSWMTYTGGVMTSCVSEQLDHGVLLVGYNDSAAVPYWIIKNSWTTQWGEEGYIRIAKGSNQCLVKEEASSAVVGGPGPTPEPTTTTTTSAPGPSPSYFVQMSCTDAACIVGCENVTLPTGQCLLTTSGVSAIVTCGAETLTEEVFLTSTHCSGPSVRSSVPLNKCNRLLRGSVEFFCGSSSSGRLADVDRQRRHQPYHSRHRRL
#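 Detergent-free condition (0.00005% Triton X-100) in acetate buffer pH 5.5 with DTT. 1.5 nM enzyme and compound were pre-mixed 15 min, then 2 uM Z-FR-AMC substrate added; reaction progress from fluorescence change between first and third reads (60 s).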
# Cruzain Triton = inhibitors of Trypanosoma cruzi cruzain with detergent. P25779. purified cruzain, Z-FR-AMC fluorescence, 0.01% Triton. Potency, µM, without a hit: max response, negative = inhibition, actives largely listed as inhibitors. hit rate 0.43% among 200,000. AID 1478; active means well fitted curve in the direction sought with a large enough effect; inconclusive means small, poorly fitted or top-dose-only effect, or another doubt; inactive means no such curve, though single readings can be large; an effect the other way counts as inactive or inconclusive;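 further: plate controls were neutral wells for no effect and buffer without enzyme for full effect; nearly all actives have a fitted effect of over 40% in size; top concentration of the series not given in the record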
#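 Cysteine protease activity tested under reducing, mildly acidic conditions (100 mM sodium acetate pH 5.5, 5 mM DTT) plus 0.01% Triton X-100. Cruzain 1.5 nM; substrate Z-FR-AMC 2 uM; 15 min compound preincubation at room temperature.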
# NS1 function inh = blocks influenza NS1 protein function. S. cerevisiae slowed by influenza A NS1, growth recovery by OD600. Potency, µM (series often up to 46.1 µM), for the others: top-dose activity, positive = more growth. hit rate 0.4% among 270,000. AID 2326; further: actives are rising curves; nearly all actives have a fitted effect of over 50% in size
#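 A cell-based growth assay was used: compounds that relieve NS1-induced slow growth of budding yeast raise OD600. Assay medium was yeast nitrogen base with ammonium sulphate and -URA supplement, pH 6.0, with 2% galactose.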
# Active calls of the source: *; ? = inconclusive; / = not tested or not shown; & = joins results of further samples; [ ] = dose if it differs, or a comment. Unless noted, the call rests on the fitted dose curve; in most records, active means well fitted rising curve with a large enough effect; inconclusive means small, poorly fitted or top-dose-only effect; inactive means no such curve, though single readings can be large or run the other way. Potency means the concentration at half of the fitted maximal effect.
mol	RE007 growth inh	MARV entry inh	Lassa entry inh	StopGo reporter	SARS PLP yeast	Cruzain noTriton	Cruzain Triton	NS1 function inh
CCN(CC(=O)Nc1c(F)cccc1F)C(=O)c1ccc(N2CCCC2)c([N+](=O)[O-])c1	2%	?	5%[46.1 µM]	0%	1%	/	/	/
O=S(=O)(c1cccc2c(S(=O)(=O)N3CCCC3)cccc12)N1CCCC1	-17%	2%	-14%	?	1%	-1%	0.4%	-19%
Cc1c(C)[n+](=O)c(-c2ccco2)c(C)n1[O-]	14%	1%	1%	15%	4%	-1%	-8.2%	-3%
O=C(c1ccc2c(c1)OCCO2)C1CCN(S(=O)(=O)c2cccc(F)c2)CC1	9%	0%	-39%[14.3 µM]	-28%	5%	-14%	2.4%	-18%
CC(=NNC(=S)N1CC2CCC(CC2)C1)c1cccc(C)n1	?	?	?	-8%	/	/	/	/
CN(C(=O)c1cccc(NC(=O)Cc2ccccc2)c1)c1ccccc1	2%	/	/	-19%	1%	/	/	14%
COc1ccccc1C(=O)OCc1cc(=O)n2ccsc2n1	2%	19%	17%	63%[activator]	-9%	/	/	/
Cc1cc(C)c(S(=O)(=O)N2CCCCC2CCNC(=O)C(=O)NCC2CCCO2)c(C)c1 (centres undefined)	-7%	-2%	?	-3%	-2%	/	/	/
COc1ccccc1CNS(=O)(=O)c1ccc(-c2cc(C(F)(F)F)on2)s1	/	/	3%[46.1 µM]	-22%	/	1%	-11%	/
O=C1C2C3C=CC(C2C(=O)N1c1ccc(O)cc1)C1C2C(=O)N(c4ccc(O)cc4)C(=O)C2C31 (centres undefined)	0%	/	/	15%	1%	/	/	-68%
COc1c(C)cc(Br)cc1C(=O)Nc1cccc(NC(=O)c2ccco2)c1	-15%	?	?	?	-22%	1%	-8.2%	-20%[9.22 µM]
C=CCOC(=O)C1=C(C)Nc2nnnn2C1c1cccc(OC)c1OC (centres undefined)	-1%	-3%	3%	0%	0%	-10%	0.5%	-12%
CCOC(=O)C1(C)NC(c2ccc(OC)cc2OC)C2C(=O)N(c3cccc(OC)c3)C(=O)C21 (centres undefined)	10%	?	-2%	-20%	-1%	-2%	-3.4%	-51%
COC(=O)c1c(NC(=O)c2ccc(N(C)S(=O)(=O)c3ccc(C)cc3)cc2)sc2c1CCCC2	-4%	-1%	10%	-8%	-4%	4µM*	-4.0%	5%
COCc1cc(C)nc(Sc2nc3c(c(=O)n(C)c(=O)n3C)n2C)c1C#N	9%	/	/	-10%	-1%	/	/	4%
NS(=O)(=O)c1cccc(N2CCNCC2)c1	6%	-6%[46.1 µM]	3%	7%	0%	/	/	2%
CCCn1c(SCC(=O)N2CC(=O)Nc3ccccc32)nc2ccccc21	-1%	-22%[46.1 µM]	-21%	-7%	10%	4%	13µM*	5%
[N-]=[N+]=NC[C@H](Cc1ccccc1)N1CCN(Cc2ccccc2)CCC1=O	-2%	/	/	-10%	-8%	/	/	0%
CCn1cc(C(=O)N(C)c2ccc(OC)cc2OC)c2cc(OC)c(OC)cc2c1=O	0%	/	/	-8%	-1%	/	/	0%
CC(NC(=O)Nc1ncccn1)(C(F)(F)F)C(F)(F)F	-14%	2%&2%	0%	-22%	-1%	-2%	-2.8%	3%
Cc1ccc(C(=O)N/N=C\c2cccn2C)cn1	-8%	?	?	54%[activator]	-1%	-3%	-11%	-96%
CCC(C(=O)NCCc1ccc(SC)cc1)n1nc(C)c2c(C)n(-c3ccc(C)cc3)nc2c1=O (centres undefined)	/	/	?	?	/	-9%	-8.1%	/
CN1CCN(C(=O)/C(=C\c2cccnc2)NC(=O)c2cccc(Br)c2)CC1	15%	/	/	10%	3%	/	/	2%
Cc1ccnc(NC(=O)CCC(=O)N(CC(=O)NCc2ccccc2)Cc2cccs2)c1	5%	?	-3%	-15%	-3%	/	/	/
Cc1cc(C)c2c(=O)[nH]c(SCc3ccccc3)nc2n1	-14%	0%[46.1 µM]	-5%	-17%	-2%	/	/	8%
C=C(C)CN(CC)C(=O)CN1C(=O)NC2(CCCc3ccccc32)C1=O (centres undefined)	-8%	-9%[46.1 µM]	14%[46.1 µM]	13%	-2%	/	/	0%
COc1ccc(Cl)cc1NC(=S)Nc1ccccc1F	20%	?	-12%[46.1 µM]	26%	-2%	/	/	-2%
COCCCN(CC(=O)O)S(=O)(=O)c1cccc(Cl)c1	2%	2%[46.1 µM]	8%[46.1 µM]	51%[activator]	1%	/	/	7%
CS(=O)(=O)Cc1ccc(C(=O)N2CCCC2c2cccs2)cc1 (centres undefined)	-6%	24%	4%	40%[activator]	-1%	/	/	4%
CCNc1nnc(-c2ccncc2)s1	?	2%	19%	11%	-1%	-9%	-0.5%	3%
CCc1ccc(-c2nn(-c3cc(Cl)ccc3[N+](=O)[O-])c(=O)c3ccccc23)cc1	9%	0%&0%	-9%	-15%	4%	?	0.6%	6%
O=C(CCCn1cc([N+](=O)[O-])cn1)NC1CCCCCC1	31%	13%[46.1 µM]	17%	-6%	-1%	/	/	/
Cc1onc(-c2ccccc2)c1-c1nnc(COC(=O)c2ccc(O)cc2)o1	1%	?	?	?	-1%	/	/	/
COc1ccc(CCNC(=O)c2ccc3c(=O)n4c(nc3c2)CCC4)cc1OC	10%	9%[46.1 µM]	3%	51%[activator]	1%	/	/	/
CC1CCCN(S(=O)(=O)c2coc(C(N)=O)c2)C1 (centres undefined)	13%	/	/	-4%	-5%	-5%	-2.9%	2%
COc1ccc(CC(=O)N(Cc2nc(-c3ccc(C)cc3)no2)C(C)C)cc1	/	-29%[46.1 µM]	1%[46.1 µM]	-18%	/	12%	-2.3%	/
CN(Cc1ccon1)C(=O)CC1C(=O)NCCN1Cc1ccccc1C(F)(F)F (centres undefined)	-1%	/	/	-7%	1%	/	/	6%
N#C/C(=C\c1ccc(OC(=O)c2ccc(Br)s2)cc1)c1nc2ccccc2[nH]1	-16%	?	7%	38%[activator]	-2%	5µM*	-4.3%	-24%
O=C(CSc1nnc(COc2ccc(Br)cc2)o1)NC1CCCCC1	-4%	?	/	22%	1%	/	/	0%
Cc1csc(=N)n1Cc1ccccc1	11%	15%	-1%	-17%	16%	17%	0.3%	2%
C[C@@H](NC(=O)c1nc[nH]c1C(=O)NCC(=O)OC(C)(C)C)c1ccccc1	-18%	/	/	?	-1%	/	/	24%
O=C(COC(=O)C1CC2C=CC1C2)Nc1cccc(S(=O)(=O)N2CCCCCC2)c1 (centres undefined)	5%	-30%	13%	-17%	-10%	2%	-7.8%	20%
O=S(=O)(/N=C(/c1ccccc1)N1CCCCC1)c1ccccc1	-3%	25%	-3%	9%	6%	9%	0.5%	-12%
Cc1cccc(NC(=S)N/N=C2\CC(C)(C)Oc3ccc(O)cc32)c1	-4%	4.5µM*	-9%[46.1 µM]	?	?	-6%	-9.3%	10%
CCN(CC)C1CCN(C(=O)c2ccc(OC3CCN(CCc4ccccc4)CC3)cc2)C1 (centres undefined)	-9%	/	/	-8%	1%	/	/	3%
COc1ccc(-c2nc(C(=O)NCCCN3CCOCC3)cc3c2[nH]c2ccccc23)cc1OC	-3%	/	/	?	1%	/	/	-4%
COc1ccc(OC)c(NC(=S)NCc2cccnc2)c1	?	15%	15%	35%[activator]	-1%	-3%	-3.8%	2%
COc1ccc(OCc2cc(C(=O)N[C@H]3CCCCNC3=O)no2)c(Cl)c1	-16%	11%	?	18%	-4%	/	/	-10%
Cc1cc(OCC(=O)NCc2cccnc2)c2c(C)c(C)c(=O)oc2c1	-3%	/	/	2%	?	/	/	2%
CCOc1ccc(CCNC(=O)Cn2c(=O)c3cccn3c3ccc(F)cc32)cc1OCC	/	/	7%[46.1 µM]	-22%	/	5%	-1.3%	/
CCC(/C=N/Nc1ccc(S(=O)(=O)N2CCCC2)cc1[N+](=O)[O-])CC	0%	?	0%	-21%	0%	20µM*	-1.5%	10%
Cc1[nH]c(=S)c(C#N)c(C)c1CCC#N	-11%	?	-7%[46.1 µM]	11%	1%	/	/	12%
Cc1ccc(CCNC(=O)NCc2noc3ccc(C)cc23)cc1	/	/	-7%[46.1 µM]	-1%	/	0%	-3.6%	/
COc1ccc(C(=O)COc2ccc3ccc(=O)oc3c2)cc1	-10%	/	/	-5%	1%	/	/	0%
N#Cc1c(NC(=O)CSc2ncccn2)oc(-c2ccccc2)c1-c1ccccc1	17%	1%	-24%	-25%	/	/	/	/
C[C@@H](O)C1NC(=O)[C@H](CCCCN)NC(=O)c2cc([N+](=O)[O-])cc(F)c2NCCCC[C@@H](C(N)=O)NC1=O (some centres undefined)	-17%	-25%	0%	-22%	-3%	-3%	-12%	-13%
Cn1cc(SCC(=O)O)c2ccccc21	1%[3.69 µM]	1%	-2%	11%	-1%	-1%	-4.4%	3%
CC1(C)COCN1C(=O)c1ccc(Cl)c(Cl)c1	-8%	11%[46.1 µM]	-3%	13%	2%	/	/	/
CCC(=O)n1nc(-c2cccnc2)nc1NCc1ccc(F)cc1	5%	?	?	-6%&-3%	-3%	-3%	-7.1%	/
O=C(CNC(=O)c1ccc(Cl)cc1Cl)OCc1nc2ccccc2s1	-11%	-1%	10%	5%	-13%	4µM*	7.9µM*	-17%
NC(=O)CC(NC(=O)c1cccc(Br)c1)c1ccc(NCC2CC2)c([N+](=O)[O-])c1 (centres undefined)	4%	/	/	-20%	5%	/	/	23%
CC(C)(O)C#Cc1ccc(C(=O)NC(CCCNC(N)=O)C(=O)O)s1 (centres undefined)	1%	?	10%	-5%	0%	/	/	/
